# Six1-Eya2 inh = Six1/Eya2 interaction inhibition | AlphaScreen GST-Six1/His-Eya2 binding, biochemical; stronger effect = lower value; control for the full effect not named in the record | activity change, % (no concentration beside the values) | 0.56% of 360,000 active | AID 651725; in the data active = activity change below about -65%; inconclusive = about -30% to -65%; inactive = above about -30%; also: % is scaled to controls: 0 for no effect and ±100 for the full control effect; compound concentration not given in the record
#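 AlphaScreen luminescence read after one hour at 37 °C in darkness. Pin-transferred compounds met GST-Six1 and His-Eya2 protein (5X stock 250 nM/500 nM) plus glutathione donor and Ni-chelate acceptor beads (5X, 50 ug/mL).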
# D2 agonist = human D2 receptor agonism in beta-arrestin assay | DiscoveRx PathHunter D2 beta-arrestin, luminescence, 90 min; 100% = 57 uM dopamine signal | 0.084% of 360,000 active | activation, % (concentration not given with the values); in the data active = activation above about 40%; inconclusive = about 15% to 40%; inactive = below about 15%; also: compound concentration not given in the record; the text of the record calls up to 30% inactive
# Target sequence (P14416 whole entry, looked up): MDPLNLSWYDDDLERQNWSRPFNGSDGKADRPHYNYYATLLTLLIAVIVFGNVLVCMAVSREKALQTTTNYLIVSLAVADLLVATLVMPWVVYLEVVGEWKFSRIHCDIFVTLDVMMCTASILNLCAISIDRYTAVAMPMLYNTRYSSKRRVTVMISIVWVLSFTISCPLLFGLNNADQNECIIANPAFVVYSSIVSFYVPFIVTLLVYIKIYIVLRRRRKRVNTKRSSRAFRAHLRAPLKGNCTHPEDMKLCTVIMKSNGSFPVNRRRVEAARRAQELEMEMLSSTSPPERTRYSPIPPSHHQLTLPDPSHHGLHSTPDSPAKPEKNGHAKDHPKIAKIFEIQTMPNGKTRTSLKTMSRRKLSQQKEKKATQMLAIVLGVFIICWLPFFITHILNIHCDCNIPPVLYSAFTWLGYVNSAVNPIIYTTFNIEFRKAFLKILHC
#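 Agonist mode: compounds alone added to overnight-plated D2 PathHunter cells for 90 min at 37 C, with 57 uM final dopamine (EC100) defining full response. Beta-arrestin recruitment detected by chemiluminescent reagent, read after 1 h at ambient temperature.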
# PINK1 modulator = modulators of PINK1 expression | PINK1 immunofluorescence, high-content cytometry, 24 h | Potency, µM (top dose mostly 76.6 µM), without a hit: at the top dose activation (PINK1 increase), hits mostly activators | 0.2% of 410,000 active; active = well fitted activation curve with a large enough effect; inconclusive = small, poorly fitted or top-dose-only effect; inactive = flat fitted curve, though single readings scatter; cell line not stated here;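 also: potency is read from the fitted curve at half-maximal effect; % of control where 0% means no effect; nearly all actives have a fitted effect of over 65% in size; a mitochondrial uncoupler was the plate control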
#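 Stable cell line, 250 cells/well, 12 h attachment; compounds pinned at 5 concentrations, 24 h; CCCP control. Fixed with nuclear dye, primary antibodies 12 h at 10 degrees C, secondary plus cell stain; laser-scanning cytometer read.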
# CtBP-E1A blk = blocks the CtBP interaction with E1A; AlphaScreen GST-E1A/His-CtBP binding, 1536-well; stronger effect = lower value; control for the full effect not named in the record; activity change, % (test concentration not listed); 0.49% of 340,000 active; in the data active means activity change below about -65%; inconclusive means about -30% to -65%; inactive means above about -30%; also: % is scaled to controls: 0 for no effect and ±100 for the full control effect; compound concentration not given in the record
#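 Homogeneous bead-based format: GST-tagged E1A captured on glutathione donor beads, His-tagged CtBP on nickel acceptor beads; compounds precede bead addition by 2 h at 37 °C.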
# TRPML1 agonist = human mucolipin-1 channel agonism. 0.12% of 410,000 active. TRPML1-expressing cells, Ca2+ dye fluorescence, FDSS; host cell line not named in the record; reference of the full effect not given here. AID 624414. activation, % (no concentration beside the values). Q9GZU1; in the data active = activation above about 50%; inconclusive = about 30% to 50%; inactive = below about 30%; also: 0% is about no effect; the text of the record puts the active cut at 80%
# Target sequence (Q9GZU1 whole entry, looked up): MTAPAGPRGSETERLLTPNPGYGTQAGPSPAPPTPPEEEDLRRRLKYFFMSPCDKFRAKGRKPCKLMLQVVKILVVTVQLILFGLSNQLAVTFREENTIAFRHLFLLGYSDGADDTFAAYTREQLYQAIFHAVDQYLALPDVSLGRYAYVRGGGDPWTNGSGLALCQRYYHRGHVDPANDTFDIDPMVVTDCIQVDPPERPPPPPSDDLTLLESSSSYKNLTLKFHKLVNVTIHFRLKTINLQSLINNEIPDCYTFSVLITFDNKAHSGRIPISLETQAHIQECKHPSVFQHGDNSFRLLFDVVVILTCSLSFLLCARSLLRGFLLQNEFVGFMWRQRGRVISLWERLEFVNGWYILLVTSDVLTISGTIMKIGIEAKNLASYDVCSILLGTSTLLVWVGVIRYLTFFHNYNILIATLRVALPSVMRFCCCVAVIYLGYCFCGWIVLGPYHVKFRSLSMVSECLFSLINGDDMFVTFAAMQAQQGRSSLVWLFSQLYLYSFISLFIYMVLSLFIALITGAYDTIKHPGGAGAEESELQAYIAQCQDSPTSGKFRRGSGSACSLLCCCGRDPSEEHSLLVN
#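 TRPML1-DL cells, Tet-induced overnight (~16 h, 37 degrees C), loaded 45-90 min at room temperature with Ca8 no-wash calcium dye plus quencher. FDSS fluorescence: 10 s baseline, compound pin-transfer, 110 s agonist read, then EC80 54-4 (4uM final) and 110 s antagonist read.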
# TRPML1 blocker = human mucolipin-1 channel inhibition. 0.02% of 390,000 active. Q9GZU1. TRPML1-inducible cells, Ca2+ dye fluorescence, FDSS; stronger effect = lower value; inhibition of EC80 agonist-evoked calcium signal. activity change, negative = inhibition, % (no concentration beside the values). AID 624415; in the data active means activity change below about -50%; inconclusive means about -30% to -50%; inactive means above about -30%;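 also: stimulus is agonist 54-4 at its EC80 concentration; % is scaled to controls: 0 for no effect and ±100 for the full control effect; compound concentration not given in the record; the text of the record puts the active cut at -80%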
#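 TRPML1-DL cells, Tet-induced overnight (~16 h, 37 °C) at 1,500 cells/well, were loaded with Ca8 no-wash dye plus quencher for 45-90 min at room temperature. Compounds were pinned during FDSS kinetic reading; agonist 54-4 at EC80 (4 uM final) then added.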
# * = called active by the depositor; ? = inconclusive; / = no result given; & = joins results of further samples; [ ] = remark or other dose.
Compound,Six1-Eya2 inh,D2 agonist,PINK1 modulator,CtBP-E1A blk,TRPML1 agonist,TRPML1 blocker
C[C@@H]1CN([C@H](C)CO)C(=O)CCCn2cc(nn2)CO[C@H]1CN(C)S(=O)(=O)c1ccccc1,6,-7.3,2.6%,6,-0.2,10
CCCCN(CCCC)Cc1ccc(C(=O)NNC(=O)Nc2ccc(Cl)cc2)o1,3,-2.1,3.3%,0,-0.2,5
CCCC(=O)N1CCCC1(C)C(=O)Nc1cc(OC)c(OC)c(OC)c1 (configuration not stated),6,-1.7,0.1%,5,0.8,17
O=C(NNC(=O)c1cccc2ccccc12)c1cccc(Br)c1,1,-3.7,1.1%,3,0.4,-3
Cc1ccc(C(=O)COC(=O)c2cc(=O)[nH]c3ccccc23)cc1C,8,-3.7,7.2%,4,2.5,-9
CCC(C)NC(=O)c1ccccc1NC(=O)Nc1ccccc1 (configuration not stated),1,-2.7,1.6%,4,-1.1,4
CC1CCCC(C)N1CCCNC(=O)CN1C(=O)c2cccnc2Oc2ccc(Cl)cc21 (configuration not stated),1,-2.2,-4.6%,5,3.7,-13
O=C(CN1CCN(C(=O)c2ccco2)CC1)NCc1ccc(Cl)cc1,3,2.4,2.7%,9,0.4,4
c1ccc(CSc2ncccn2)cc1,10,-0.4,4.4%[38.3 µM],0,0.5,20
COc1ccccc1NC(=O)C1=C(C)Nc2nc(SCc3ccccc3F)nn2C1c1cccs1 (configuration not stated),/,/,6.1%,/,0.3,5
CCOc1ccccc1CNc1ccc(O)cc1,?,14,6.9%,?,-0.6,-4
CC1=C(C(=O)Nc2ccccc2Cl)C(c2cccs2)n2ncnc2N1 (configuration not stated),/,/,-4.2%,/,1.8,2
COc1ccccc1C(=O)Nc1ccccc1C(=O)Nc1ccccc1,-2,3.1,3.6%,2,1.2,-7
CCN(CC)c1ccc(CN(C(=O)Cc2coc3ccc(C)cc23)C2CCS(=O)(=O)C2)cc1 (configuration not stated),/,/,0.4%,/,1.1,-18
COc1cc(NC(=O)CC(C)C)ccc1NC(=O)c1ccco1,-1,-1.0,/,4,0.0,0
Nc1ccc2nn(-c3ccc(F)cc3)nc2c1,8,-7.3,1.4%,/,-0.2,5
COCCN(C(=O)/C=C/c1ccccc1)c1nnc(-c2cccnc2)s1,22,2.3,3.5%,0,1.5,-19
COc1ccc2cc3cc(C(=O)N4CCN(c5ccccc5)CC4)oc3nc2c1,2,-1.6,16%,1,4.2,12
CCN(c1ccccc1)S(=O)(=O)c1ccc(OC)c(NC(=O)c2c(C)noc2C)c1,-1,-6.8,6.2%,1,0.0,11
CCN1CCCC1CNC(=O)c1ccc(N2CCCC2=O)cc1 (configuration not stated),-1,-2.8,-0.3%,0,1.7,11
CCOc1ccc(C(=O)NCC(=O)OCC(=O)N2CCCC2)cc1,-2,-1.5,0.7%,3,1.1,-22
Cc1ccccc1NC(=O)c1cc(S(=O)(=O)c2ccccc2)ccc1Cl,7,-3.5,1.0%,1,2.8,12
O=[N+]([O-])c1cccc(/C=N/n2c(COc3ccccc3)n[nH]c2=S)c1,-10,-3.3,-16%[38.3 µM],-19,-0.3,31
CCC(=O)N1CCCC1(C)C(=O)Nc1cccc(Oc2ccccc2)c1 (configuration not stated),13,-3.8,-0.6%,-1,-0.6,/
CCOc1cccc(-c2c(C(=O)N/N=C/c3cccs3)nnn2-c2nonc2N)c1,-1,-0.9,1.4%,-8,0.3,40
O=C(c1ccc(=O)[nH]n1)N1CCN(S(=O)(=O)c2cccc(F)c2)CC1,18,2.5,-0.8%,-24,0.1,-12
COc1cc(/C=C/C(=O)O)cc(S(=O)(=O)Nc2cc(Cl)c(Cl)cc2Cl)c1OC,-8,0.9,1.8%,-12,1.3,55
O=C(CCC1CCCCC1)NCc1ccncc1,-6,-1.4,-0.4%,-5,-0.2,16
Cc1cccc(Nc2cnn(C34CC5CC(CC(CC(=O)O)(C5)C3)C4)c(=O)c2Cl)c1,2,-2.2,/,14,-0.1,-1
N#C/C(=C/c1ccc(N2CCOCC2)o1)c1nc2ccccc2[nH]1,?,1.2,25µM*,-14,?,-26
CN(CC1CCN(CCc2cccc(C(F)(F)F)c2)CC1)C(=O)c1ccc(F)cc1F,-4,-2.0,2.1%,4,1.0,3
O=C(O)CNC(=O)c1ccc(S(=O)(=O)N2CCOCC2)cc1,7,1.8,-3.4%[38.3 µM],4,0.7,17
N=C1/C(=C/c2coc3ccccc3c2=O)C(=O)N=C2SC(c3ccco3)=NN12,-29,7.0,8.6%,?,81*,-16
CCC(=O)N1c2ccccc2CC1C(=O)NCCc1ccccc1OC (configuration not stated),/,/,2.8%,/,1.4,35
COc1cccc(Nc2c3c(nc4c(-c5ccccc5)c(C)nn24)CCC3)c1,25,-3.0,1.7%,13,0.0,30
COC(=O)Nc1ccc(S(=O)(=O)N2CCCCC2C(=O)NCc2ccco2)cc1 (configuration not stated),-16,-2.7,-1.1%,-2,1.4,22
CCN(CC)C(=O)CSc1nc2ccccc2n1CC(=O)N1CCN(c2ccccc2OC)CC1,-3,-3.9,-2.5%,1,-1.4,-9
COc1ccc(C(=O)N2CCCC(c3nc(-c4cccs4)no3)C2)cc1OC (configuration not stated),0,-1.9,-0.5%[38.3 µM],-2,-0.4,-6
O=C(c1ccco1)N1CCN(Cc2nc(-c3cccs3)no2)CC1,0,8.2,0.8%,/,1.0,-12
COc1ccc2nc(N3CCCC3)c(C#N)cc2c1,69,-1.3,7.9%,86,14,-8
O=C(CSc1nnc(COc2ccccc2)n1-c1ccccc1)c1ccccc1,-4,1.2,-1.3%,4,3.6,1
CCOC(=O)c1c(N)sc(C(=O)OC)c1C,12,2.2,0.5%,/,-0.2,-13
COc1ccc(NC(=O)c2ccc(NC(=O)c3nc4nccc(C)n4n3)cc2)cc1,0,-6.8,11%,3,-0.1,6
CCOc1cc(C(=O)Nc2ccc3c(c2)n(C)c(=O)c(=O)n3C)cc(OCC)c1OCC,/,/,-1.5%,/,-0.4,49
CC1CN(S(=O)(=O)c2cccc(-c3cn4ccccc4n3)c2)CC(C)O1 (configuration not stated),-11,0.1,2.0%[38.3 µM],13,-0.3,-9
COc1ccc(NC(=O)C2(C)Cc3c(-c4cccc(C(N)=O)c4)ccnc3O2)cc1OC (configuration not stated),-4,8.0,9.9%,-1,-0.9,/
O=C(NCCN1CCOCC1)c1c(F)c(F)c(F)c(F)c1F,8,-0.4,0.1%,6,2.5,12
Cc1ccc(OCc2cc(C(=O)N3CCN(C)C[C@@H]3c3ccccc3)no2)cc1C,-6,-2.3,-0.5%,-3,1.2,-2
Cc1cc(NC(=S)Nc2cccnc2)ccc1Br,1,0.9,2.2%,-2,-0.7,9
O=C(N/C(=C\c1ccco1)C(=O)N1CCCC1CO)c1ccccc1 (configuration not stated),5,-1.4,-0.5%,1,0.4,-11
CCOc1ccc2c(c1)OC(c1ccc(C)cc1)(C(F)(F)F)NC2=O (configuration not stated),-2,-1.1,?,-1,0.1,-15
O=C(NNC(=O)C1CC1c1ccccc1)c1cccc([N+](=O)[O-])c1 (configuration not stated),3,0.0,1.7%,-14,-0.2,3
Cc1cccc(C)c1NC(=O)NN=C1CCCCC1,-1,-2.4,0.0%,0,0.6,-20
C=CCN1C(=O)c2ccc(C(=O)NCC(c3ccccc3)N(C)C)cc2C1=O (configuration not stated),11,-1.3,1.4%,3,0.0,14
O=C(NCc1ccccc1)[C@H]1C[C@@H]1[C@H](NP(=O)(c1ccccc1)c1ccccc1)c1ccccc1,-2,-5.2,2.0%,-2,1.1,7
Cc1ccc(S(=O)(=O)NCC(=O)NNC(=O)c2ccc(Br)cc2)cc1C,-1,3.3,5.0%,2,-1.2,3
Cc1ccccc1C(=O)NC(=S)NCC1CCCO1 (configuration not stated),-8,-1.2,-0.1%,-2,-0.2,-2
CCOc1cc(C(=O)OCc2ccc([N+](=O)[O-])cc2)ccc1OCC(=O)N1CCOCC1,1,-1.6,0.1%,-1,-0.3,13
COc1ccc(N2CCN(C(=O)COC(=O)c3ccc(Cl)nc3)CC2)cc1,0,-4.6,1.6%,8,-0.6,-8
COc1ccccc1C1/C(=C(/O)c2ccc(C)cc2)C(=O)C(=O)N1CC(C)O (configuration not stated),-2,0.2,-0.3%,5,-0.7,24

# An excerpt of these results, field by field.
> O=C(NCc1ccccc1)[C@H]1C[C@@H]1[C@H](NP(=O)(c1ccccc1)c1ccccc1)c1ccccc1
- Six1-Eya2 inh = -2
- D2 agonist = -5.2
- PINK1 modulator = 2.0%
- CtBP-E1A blk = -2
- TRPML1 agonist = 1.1
- TRPML1 blocker = 7
> Cc1ccc(S(=O)(=O)NCC(=O)NNC(=O)c2ccc(Br)cc2)cc1C
- Six1-Eya2 inh = -1
- D2 agonist = 3.3
- PINK1 modulator = 5.0%
- CtBP-E1A blk = 2
- TRPML1 agonist = -1.2
- TRPML1 blocker = 3
> Cc1ccccc1C(=O)NC(=S)NCC1CCCO1 (configuration not stated)
- Six1-Eya2 inh = -8
- D2 agonist = -1.2
- PINK1 modulator = -0.1%
- CtBP-E1A blk = -2
- TRPML1 agonist = -0.2
- TRPML1 blocker = -2
> CCOc1cc(C(=O)OCc2ccc([N+](=O)[O-])cc2)ccc1OCC(=O)N1CCOCC1
- Six1-Eya2 inh = 1
- D2 agonist = -1.6
- PINK1 modulator = 0.1%
- CtBP-E1A blk = -1
- TRPML1 agonist = -0.3
- TRPML1 blocker = 13

# The results go on.
Compound,Six1-Eya2 inh,D2 agonist,PINK1 modulator,CtBP-E1A blk,TRPML1 agonist,TRPML1 blocker
CCOC(=O)/C=C/[C@H]1CCc2cccc(C)c2O1,16,-2.9,6.4%,11,-0.2,10
COC(=O)c1cc(S(=O)(=O)NCC2CCN(Cc3ccc(F)cc3)CC2)cn1C,6,1.0,0.9%&1.6%,/,0.9&0.1,2&13
O=C(NC1CCS(=O)(=O)C1)C1C2CC3CC(C2)CC1C3 (configuration not stated),7,-2.6,2.9%,-1,0.1,-9
Cc1ccc(C)c(NC(=O)CN(C)C(=O)c2ccccc2Cc2ccccc2)c1,4,-5.1,-0.8%,2,0.0,-6
COc1ccc(NC(=O)c2cccc(S(=O)(=O)N3CCN(C)CC3)c2)c(OC)c1,-2,-2.4,-1.4%,-13,-0.2,-2
O=C(COC(=O)c1cccc(Br)c1)Nc1ccc2[nH]c(=O)[nH]c2c1,3,-3.9,0.8%,-5,-0.2,0
O=C1CSc2ccccc2N1,5,0.7,0.3%,0,-0.4,-1
CC(=O)Nc1ccc(S(=O)(=O)N2CCN=C2SCc2ccc(F)cc2)cc1,7,-2.5,1.0%,7,-0.1,-4
Cc1csc(SCCn2c(N3CCOCC3)nc3c2c(=O)[nH]c(=O)n3C)n1,6,0.8,-0.9%,4,0.3,-14
COc1ccc(NC(=O)c2ccc(S(=O)(=O)NCc3cccnc3)cc2)cc1,-6,11,4.5%,16,-0.6,-4
O=[N+]([O-])c1cccnc1Oc1cc(Cl)c(Cl)cc1Cl,-23,-2.3,2.1%,-1,1.9,7
N#Cc1cccc(C(=O)OCC(=O)N2CCCc3ccccc32)c1,6,-3.0,-3.2%,4,0.0,-6
